# RanGTP-Imp inh – inhibitors of RanGTP-importin-beta interaction, primary screen, biochemical, FRET, CFP-Ran, YFP-importin-beta, homogeneous; Ran GTPase (GTP-bound) - importin-beta complex; cell-free CFP-Ran/YFP-importin-beta FRET ratio; inhibition, % (concentration not given with the values); 1.1% of 300,000 active; AID 2216, 2009;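 active means most replicates above 15%; inconclusive means exactly half above 15%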;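 further: 0% = DMSO wells and 100% = Ran loaded with GDP instead of GTP; wells of about 40 µL received 100 nL stock; the first replicate is given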
# B2AR ag – beta2AR agonists driving receptor internalization, primary screen, cell-based, FAP fluorogen, flow cytometry; Beta-2 adrenergic receptor (Homo sapiens), P07550; Am2.2-beta2AR cells; reference of the scale not given here; response, % (test concentration not listed); 0.43% of 340,000 active; AID 504454, 2011;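 active means response above a set limit, near 3 SD of response in nonfluorescent compounds, cut at about 42% in these data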;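 further: stock transfer was 100 nL into about 11 µL; a reference agonist was the positive control; negative values mostly stem from fluorescent compounds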
# Target sequence (P07550 whole entry, looked up): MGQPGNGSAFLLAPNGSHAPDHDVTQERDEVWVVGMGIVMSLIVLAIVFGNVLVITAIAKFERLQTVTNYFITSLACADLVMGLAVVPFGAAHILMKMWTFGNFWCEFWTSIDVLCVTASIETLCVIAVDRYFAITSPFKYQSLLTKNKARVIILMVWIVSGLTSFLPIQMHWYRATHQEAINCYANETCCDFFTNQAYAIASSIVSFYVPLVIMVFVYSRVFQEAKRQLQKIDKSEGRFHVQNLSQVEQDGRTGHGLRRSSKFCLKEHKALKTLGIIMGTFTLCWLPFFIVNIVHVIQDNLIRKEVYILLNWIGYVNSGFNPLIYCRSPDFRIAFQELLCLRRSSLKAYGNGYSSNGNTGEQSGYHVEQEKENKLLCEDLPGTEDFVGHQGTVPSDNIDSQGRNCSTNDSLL
# UCH37 DUB inh – inhibitors of human UCH37 deubiquitinase, primary screen, biochemical, Ub-AMC cleavage, fluorescence; inhibition, % (concentration not given with the values); AID 588478, 2011; Ubiquitin carboxyl-terminal hydrolase isozyme L5 (Homo sapiens), Q9Y5K5; purified proteasome/UCH37; 0.33% of 330,000 active;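 active means mean of two replicates above 20%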;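 further: 0% = compound-free wells with enzyme and 100% = wells lacking proteasome; stock transfer was 100 nL into about 20 µL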
# Target sequence (Q9Y5K5 whole entry, looked up): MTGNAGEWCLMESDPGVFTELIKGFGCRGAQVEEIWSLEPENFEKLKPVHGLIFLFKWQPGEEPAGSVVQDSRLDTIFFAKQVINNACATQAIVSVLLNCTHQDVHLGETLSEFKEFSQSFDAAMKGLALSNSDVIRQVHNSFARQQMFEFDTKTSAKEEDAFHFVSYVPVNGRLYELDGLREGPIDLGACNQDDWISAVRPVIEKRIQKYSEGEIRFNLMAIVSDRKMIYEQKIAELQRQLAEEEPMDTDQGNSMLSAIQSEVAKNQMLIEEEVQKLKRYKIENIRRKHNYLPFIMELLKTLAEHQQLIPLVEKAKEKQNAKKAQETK
#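 Test system – human UCH37 enzyme supplied as purified proteasome complex · Incubation – 30 min preincubation with enzyme, 25 min cleavage at room temperature · Detection – AMC fluorescence from Ub-AMC cleavage, excitation 355 nm, emission 460 nm · Benchmarks – no-proteasome wells (full inhibition) and compound-free wells (no inhibition)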
# Calb FLC – C. albicans growth inhibition with fluconazole, primary screen, CaCi-2 strain, Alamar Blue fluorescence; C. albicans CaCi-2 (fluconazole-resistant clinical isolate) + fluconazole, 48 h; growth inhibition, % (test concentration not listed); 0.57% of 300,000 active;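 active means most replicates above 75%; inconclusive means exactly half above 75%; inactive means most below 75%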;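 further: all wells also contain fluconazole at 8 µg/ml as a sub-toxic cotreatment; 0% = median of DMSO wells and 100% = median of geldanamycin control wells; wells of about 8 µL received 7.5 nL stock; the first replicate is given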
# A1 inh – caspase 3/7 activation in MEF A1-2A-BIM cells, primary screen, A1 inhibitor project, cell-based, luminescence, HTS. 0.066% of 330,000 active. caspase activation, % (no concentration beside the values). Caspase-Glo 3/7 luminescence, 3 h; percent of clofoctol response, vehicle zero. AID 2462, 2010;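 active means over half of replicate activation scores above 10%, or exactly half above 10 with the replicate mean above 10; inconclusive means replicate mean below 10 yet half the replicates above 10; inactive means over half of replicates below 10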;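 further: wells of about 30 µL received 50 nL stock; many hits fall short of the cut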
# T cruzi repl – inhibitors of intracellular T. cruzi growth, primary screen, luminescence, NIH3T3 host cells. inhibition, % (test concentration not listed). AID 1885, 2009. 1.4% of 300,000 active. T. cruzi beta-gal in NIH3T3, 90 h;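 active means mean inhibition across valid replicates above about 55%, limit read from the data; inconclusive means mean below that limit but half or more replicates reach it; inactive means mean below it, under half of replicates reach it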;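 further: signal also drops with host cell toxicity which is not excluded here; 0% = plate median of DMSO wells and 100% = zero luminescence signal; higher percent means less beta-gal luminescence so fewer parasites; stock transfer was 50 nL into about 50 µL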
# LANA-H2A inh – blockers of LANA interaction with H2A/H2B – biochemical, FP readout, HTS, primary screen. Protein LANA1 (Human herpesvirus 8 type P (isolate GK18)), Q9QR71. cell-free LANA-H2A/H2B peptide, fluorescence polarization. inhibition, % (test concentration not listed). 0.6% of 320,000 active. AID 2629, 2010; in the data active means inhibition mostly above about 10%, no sharp cut-off; inactive means mostly below about 6.7%;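 further: stock transfer was 7.5 nL into about 10 µL; 0% = median of vehicle wells and 100% = median of positive control wells; one replicate is shown; the record names a cut of 25% in any replicate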
# Beta cell apopt – inhibitors of cytokine-induced beta cell apoptosis, primary screen, luminescence. 0.8% of 300,000 active. INS-1E cytokine-induced death, ATP luminescence, 48 h; percent of positive-control rescue, neutral wells zero. protection from apoptosis, % (test concentration not listed);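 active means all replicates at 75% or more, or half of them and the mean; inconclusive means half reach 75% but not the mean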;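 further: 0% = cytokine-treated negative control wells and 100% = positive control rescue; higher means more ATP so stronger rescue from cytokine killing; wells of about 40 µL received 100 nL stock; the first replicate is given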
# Starred values were filed as active, the others as inactive; i = inactive; ? = inconclusive; nt = no result given.
SMILES,RanGTP-Imp inh,B2AR ag,UCH37 DUB inh,Calb FLC,A1 inh,T cruzi repl,LANA-H2A inh,Beta cell apopt
Cc1ccc(C(=O)Oc2ccccc2C(=O)N2CCOCC2)cc1,-3.2,4,5.2,-10,0.3,0,-3.4,-4
Cc1c(C(=O)c2ccc(N(C)C)cc2)c2ccccn2c1CCC#N,-0.5,-12,0.4,-22,0.8,4,-3.4,2
COc1ccc(N2C(=O)CN=C2Nc2cccc(C)c2C)cc1OC,0.5,-6,0.6,7,-0.7,-4,-1.0,2
CN(C)c1ccc(/C=N/NC(=O)CNC(=O)c2ccncc2)cc1,-1.6,1,nt,10,2.1,-2,-0.8,0
CCOC(=O)c1cnc2c(C(=O)OC)cccc2c1NCc1cccnc1,0.8,-7,-6.5,-6,-0.7,-1,-2.4,2
Cc1c(Cl)cn2c(=O)cc(CN(C)Cc3nc4ccccc4c(=O)[nH]3)nc2c1Cl,-1.0,nt,-1.0,-29,-0.1,6,-5.3,-4
O=C(c1ccccc1)N1CCN(C(=O)c2ccccc2)C1c1ccccc1,0.9,-5,0.6,-9,1.2,-3,-3.2,7
O=C1CCCc2c1nc(-c1ccc(F)cc1)n2O,-0.9,4,-34,12,-0.3,2,0.7,-5
COc1ccc(-c2noc(CSc3nc(-c4ccccc4)cc(=O)[nH]3)n2)cc1,3.1,0,4.3,20,0.7,19,6.0,-12
Cc1nc2ccccc2n1/N=C/c1cccnc1,1.0,-9,nt,11,0.7,3,-1.2,-5
CC1(c2ccco2)NC(=O)NC1=O (stereo not given),5.6,4,1.8,-1,-1.0,-2,0.4,2
CC(=O)Nc1ccc(NC(=O)CN(C)S(=O)(=O)c2ccc3nc(C)sc3c2)cc1,-2.1,-5,3.7,6,-0.3,6,-1.6,-2
CCN(CC)C(=O)CSc1nnc(-c2ccc(F)cc2)n1N,1.7,1,-1.5,-6,0.0,-9,5.2,-2
CCOC(=O)C1CCN(Cc2ccc(F)cc2F)CC1,5.3,7,1.1,-20,0.4,-1,-1.2,-3
CC(=O)Nc1ccc(OCC(=O)N2CCC(Cc3ccccc3)CC2)cc1,1.8,-2,1.8,-5,-0.2,-3,0.5,9
CC(C)N1CCc2c(sc(NC(=O)c3ccc(S(=O)(=O)N(C)CC4CCCO4)cc3)c2C(N)=O)C1 (stereo not given),72*,9,9.3,3,-0.7,2,-0.1,-3
O=C(N1CCN(Cc2ccc3c(c2)OCO3)CC1)C(Cl)(Cl)Cl,-1.7,1,3.9,-6,-0.3,15,3.3,2
COCCn1c(-c2ccccc2)nc2oc3ccccc3c(=O)c2c1=O,-2.0,-10,1.5,-8,-0.1,3,-0.4,-1
Cc1ccc(N)c([N+](=O)[O-])c1,nt,-3,8.1,nt,0.0,nt,-7.6,-1
COc1ccc(Cl)cc1NC(=O)C/C(C)=N/NC(=O)c1ccccc1Cl,5.7,-6,nt,3,1.2,-6,1.6,nt
Cc1ccc(OCC(=O)N2CCc3ccccc3C2)c(Br)c1,5.5,0,5.3,-3,-0.8,11,7.2,-8
O=C(Nc1nc2cc3c(cc2s1)OCCO3)c1ccc([N+](=O)[O-])o1,3.1,10,7.3,38,-0.2,59*,-8.6,-10
Cc1ccc2nc(N3CC(C)OC(C)C3)nc(-c3ccccc3)c2c1 (stereo not given),?,1,-93,5,-0.3,-14,-5.4,10
CC(=O)c1ccc(-c2nc3ccccc3n2C)o1,5.5,-10,i,17,-4.8,-31,-9.2,7
O=C(Nc1nc2ccccc2n1CCN1CCOCC1)c1cn(-c2ccccc2)nc1-c1ccccc1,1.6,32,-0.9,12,-0.1,66*,-2.1,65
C/C(=N\NC(=O)C1CCCC1)c1ccc(Cl)cc1Cl,nt,-14,nt,-30,-0.6,nt,4.3,3
Nc1nc(C2C(=O)CCCC2=O)cs1,-2.4,4,3.9,15,-0.4,-5,3.4,-7
O=c1c2[nH]c3ccc(Cl)cc3c2ncn1Cc1ccccn1,2.3,3,-1.7,nt,nt,0,nt,nt
Cc1ccc(S(=O)(=O)N(Cc2n[nH]c(=S)n2-c2ccccc2)c2cccc(Cl)c2)cc1,2.8,3,1.5,38,0.1,35,-3.1,2
O=C(c1ccco1)N1CCN(C(=S)NC2CC3CCC2C3)CC1 (stereo not given),-3.5,-8,-2.3,18,0.3,-10,-0.8,2
Cc1ccc(-n2nnnc2SCC(=O)c2ccc3c(c2)NC(=O)CO3)c(C)c1,3.2,-16,0.5,2,0.7,-12,-1.4,-3
CCOc1ccccc1C(=O)Nc1cc(C(=O)NCCc2ccccc2)ccc1Cl,-0.4,0,2.3,14,-0.5,21,1.4,2
CCOC(=O)c1cnn(Cc2ccccc2Cl)c1N,4.3,-4,2.3,-17,0.7,-22,-4.2,-5
CCN1C(=O)/C(=C\N2CCN(C)CC2)SC1=S,5.0,-3,1.3,-6,0.9,19,2.8,0
COc1cc(NC(=O)CN2C(=O)COc3ccc(S(=O)(=O)N4CCCC4)cc32)cc(OC)c1,1.9,5,1.9,3,-1.0,6,0.3,-2
COC(=O)CN(C(=O)CSc1nnc(-c2cccc(OC)c2)o1)c1ccc(OC)cc1,-3.0,5,-2.2,-10,0.9,11,4.2,-3
CC(C)(C)NC(=O)CN(Cc1ccccc1)S(=O)(=O)c1ccccc1,-2.1,-1,4.9,-31,0.2,-3,6.0,-4
COc1cc(SC)ccc1C(=O)Nc1ccccn1,1.5,-11,2.2,-4,-3.3,0,-5.4,4
O=C(N/N=C/C=C/c1ccccc1)c1cccc(Br)c1,6.8,2,nt,-9,0.0,8,-3.4,0
CC1(C)CCC(=O)N(c2ccccc2)C1=O,-0.7,-6,6.0,4,-0.1,-13,1.2,-2
Clc1cccc(Cl)c1CO/N=C/c1cccs1,-1.3,0,nt,6,0.1,-3,-8.8,2
c1ccc(-c2nn3c(-c4ccco4)nnc3s2)nc1,0.3,-2,0.7,-25,0.2,10,-3.6,4
FC(F)(F)c1cc(C(F)(F)F)c2ccc(N3CCOCC3)nc2n1,3.2,-21,-5.4,4,0.8,6,0.6,0
Cc1ccc(S(=O)(=O)N2CCCC2C(=O)NCc2ccco2)cc1 (stereo not given),-3.7,0,4.9,-4,-0.2,-6,-4.2,-1
Cc1cccc(C)c1NC(=O)CN(C)CC(=O)Nc1ccccc1Oc1ccccc1,7.5,-13,28*,-13,1.1,4,-1.8,-1
CC1CCC(C(=O)NC(C(=O)N2CCN(c3ccccn3)CC2)C(C)C)CC1 (stereo not given),0.9,-10,0.1,-27,-0.8,7,-2.0,0
O=C(COC(=O)COc1ccc2ccccc2c1)NC1CCCc2ccccc21 (stereo not given),2.3,5,0.4,2,0.3,-19,2.0,-6
COC(=O)N/N=C(\C)c1ccccc1Br,-2.4,-4,nt,-2,0.2,14,-1.9,-6
CC1NC(=O)NC1CCCCC(=O)O (stereo not given),-4.4,-3,-1.7,1,-0.5,7,4.0,-4
COc1ccc(N2CC(C(=O)Nc3ccc(S(=O)(=O)N4CCOCC4)cc3)CC2=O)cc1 (stereo not given),-3.0,-6,-1.4,7,-0.2,12,5.0,-3
CCCS(=O)(=O)c1nc(S(=O)(=O)c2ccc(C)cc2)c(N2CCC3(CC2)OCCO3)s1,2.3,6,3.1,-2,-1.1,0,-2.4,-4
O=C(CCCOc1ccc(Cl)cc1Cl)N/N=C/c1ccc(Cl)cc1,1.3,-4,nt,4,0.2,8,5.2,5
O=C(c1ccc(C(F)(F)F)cc1)C1CCCN(Cc2cccn2-c2ncccn2)C1 (stereo not given),?,-2,2.5,1,0.3,-3,-3.7,-3
Cc1noc(C)c1C(=O)OC(C)C(=O)NC(C)c1ccc(Cl)cc1Cl (stereo not given),nt,4,0.3,nt,-0.6,nt,3.5,5
CCOc1[nH]n(-c2ccccc2)c(=O)c1C=NCC(=O)OC,?,2,1.7,-12,0.1,-23,-0.1,3
O=C(NCc1ccncc1)c1ccc(Cl)c(S(=O)(=O)N2CCOCC2)c1,4.3,2,-2.1,-7,0.2,-2,0.0,-2
COc1ccc(NC(=O)CC2C(=O)N(c3cccc(OC)c3)C(=O)N2Cc2ccco2)cc1 (stereo not given),1.4,4,0.1,-5,0.0,6,-3.0,3
COCC(=O)Nc1ccc(S(=O)(=O)NCC2CCCO2)cc1 (stereo not given),0.7,2,3.4,7,-0.2,-8,-3.1,1
COc1ccc(C(=O)NC(CC(=O)O)c2cc([N+](=O)[O-])ccc2Cl)cc1 (stereo not given),-2.4,3,1.8,-15,0.4,2,-5.8,2
Cc1c(C(=O)O)cccc1-c1ccc(/C=N/n2cnnc2)o1,?,3,nt,1,-0.3,-2,-0.8,nt

# Structures from the list above that have a CF3 group, in the order listed:
SMILES,RanGTP-Imp inh,B2AR ag,UCH37 DUB inh,Calb FLC,A1 inh,T cruzi repl,LANA-H2A inh,Beta cell apopt
FC(F)(F)c1cc(C(F)(F)F)c2ccc(N3CCOCC3)nc2n1,3.2,-21,-5.4,4,0.8,6,0.6,0
O=C(c1ccc(C(F)(F)F)cc1)C1CCCN(Cc2cccn2-c2ncccn2)C1 (stereo not given),?,-2,2.5,1,0.3,-3,-3.7,-3

# (more compounds)
SMILES,RanGTP-Imp inh,B2AR ag,UCH37 DUB inh,Calb FLC,A1 inh,T cruzi repl,LANA-H2A inh,Beta cell apopt
COc1cc(OC)c(/C=N/NC(=O)c2ccc([N+](=O)[O-])cc2)cc1Br,-1.6,-3,nt,2,0.2,-22,2.5,0
O=C(COC(=O)CC(NC(=O)c1ccccc1Cl)c1ccccc1)Nc1cccc(F)c1 (stereo not given),-0.7,-2,6.2,-18,0.4,-11,3.7,-1
Cc1ccc(CNC(=O)C(C(=O)NCc2ccc(C)o2)c2ncc(C(F)(F)F)cc2Cl)o1,0.6,-2,1.3,32,-0.9,-7,-1.6,2
CCOc1ccccc1NC(=O)C(CC)Sc1nc2ccsc2c(=O)n1CCC(=O)O (stereo not given),3.7,2,1.7,-4,0.2,-11,-6.6,-3
COc1ccc2cc(C(N)=O)/c(=N/NC(=O)c3ccco3)oc2c1,5.0,-9,nt,-2,0.4,14,2.5,0
CNC(=O)Cn1nc(-c2ccc(C)c(S(=O)(=O)N(C)C)c2)c2ccccc2c1=O,-0.9,3,5.1,-3,0.0,0,1.8,5
O=C(COC(=O)C(Cc1ccccc1)NC(=O)c1ccco1)NC1CC1 (stereo not given),-0.7,-3,3.5,-9,0.0,-17,4.0,-7
Cc1cc(C)n2nc(SCC(=O)N3CCN(c4ccc(F)cc4)CC3)nc2n1,nt,-13,0.5,nt,-0.5,nt,-2.5,4
CCc1cccc(NS(=O)(=O)c2ccc3c(c2)NC(=O)CO3)c1,-0.2,0,2.4,-1,-0.3,-7,-2.8,-2
CCOc1cnc(-c2ccccc2F)o1,?,4,2.6,-2,-0.2,8,-2.7,-3
CCOc1ccccc1NC(=O)c1cnccn1,-4.3,0,5.5,4,0.8,0,2.1,2

# Bioassay records: PubChem, several laboratories
